Rango-impB inh – inhibitors of Rango-importin beta complex formation | AID 540263 | 340,000 tested, 0.031% active | Rango CFP/YFP FRET sensor + importin beta, 45 min | Q14974 | Potency, µM (titrated, usually from 92.2 µM), for inactives: top-dose inhibition of complex formation; active = rising FRET ratio curve, often small or poorly fitted; inconclusive = mostly compound fluorescence or quenching in the first reads; inactive = flat curves in all reads;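 also: potency is read from the fitted curve at half-maximal effect; 0% = DMSO wells and 100% = buffer wells lacking importin beta; nearly all actives have a fitted effect of over 15% in size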
Target sequence (Q14974 whole entry, looked up): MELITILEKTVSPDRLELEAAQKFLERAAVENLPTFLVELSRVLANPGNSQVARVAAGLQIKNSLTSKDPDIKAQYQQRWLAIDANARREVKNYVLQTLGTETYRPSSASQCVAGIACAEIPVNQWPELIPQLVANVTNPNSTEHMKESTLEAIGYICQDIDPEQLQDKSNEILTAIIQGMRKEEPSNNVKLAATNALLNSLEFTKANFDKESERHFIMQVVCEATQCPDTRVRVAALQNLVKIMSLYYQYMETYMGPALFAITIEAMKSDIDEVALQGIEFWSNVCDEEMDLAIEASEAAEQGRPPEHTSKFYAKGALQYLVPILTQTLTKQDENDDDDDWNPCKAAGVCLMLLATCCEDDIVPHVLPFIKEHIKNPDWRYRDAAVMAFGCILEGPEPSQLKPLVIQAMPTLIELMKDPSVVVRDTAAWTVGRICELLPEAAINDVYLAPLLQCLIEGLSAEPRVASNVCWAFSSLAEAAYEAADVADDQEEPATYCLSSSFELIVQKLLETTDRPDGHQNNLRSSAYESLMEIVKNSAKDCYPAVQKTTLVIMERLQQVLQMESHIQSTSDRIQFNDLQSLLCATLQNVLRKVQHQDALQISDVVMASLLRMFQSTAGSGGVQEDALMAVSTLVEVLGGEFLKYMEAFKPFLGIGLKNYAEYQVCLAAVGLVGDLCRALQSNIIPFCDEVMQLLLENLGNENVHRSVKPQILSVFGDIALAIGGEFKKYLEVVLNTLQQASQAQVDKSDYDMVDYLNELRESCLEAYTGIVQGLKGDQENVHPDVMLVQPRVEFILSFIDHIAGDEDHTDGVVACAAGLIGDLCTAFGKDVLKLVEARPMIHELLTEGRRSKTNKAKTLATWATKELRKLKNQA
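Inhibition scored from the CFP 486 nm/YFP 530 nm FRET ratio 45 min after adding 0.125 microM importin beta to 50 nM Rango biosensor preincubated 5 min with compound (room temperature, PBS with DTT, Tween-20, BSA). No-importin wells as positive control.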
Rango release inh – inhibition of RanGTP-driven Rango-importin beta dissociation. O95149+P62826. Biochemical FRET Rango-importin beta, RanGTP-induced dissociation. Potency, µM (titrated, usually from 46.1 µM), without a hit: at the top dose activity change, negative = inhibition. 340,000 tested, 0.071% active. AID 540253; active means falling FRET ratio curve, often poorly fitted, with flat reads before Ran was added; inconclusive means other falling curves, or compound fluorescence or quenching; inactive means flat or rising ratio curve;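 also: potency is read from the fitted curve at half-maximal effect; % of control where 0% means no effect; nearly all actives have a fitted effect of over 45% in size; -100% = wells without RanGTP and RCC1; the record marks most hits as doubtful in a second field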
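FRET read at 45 min, room temperature: inhibitors block the CFP/YFP signal rise when RanGTP (0.6 uM Ran, 2 mM GTP, 0.2 uM RCC1) frees Rango (0.1 uM) from importin beta (0.25 uM). Pre-read after 5 min compound exposure flags interference.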
GLA inh pH 4.5 – inhibitors of human alpha-galactosidase A at pH 4.5; activity change, negative = inhibition, % at 105 µM; P06280; 230,000 tested, under 10 active; purified enzyme, 4-MU-alpha-Gal fluorescence, pH 4.5; inconclusive = small, poorly fitted or top-dose-only inhibition, or a rising curve; inactive = flat fitted curve, though single readings scatter; no compound was filed as active;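 also: 0% = full activity with enzyme and -100% = basal without enzyme; dose as in the result columns while the protocol names 77 µM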
miR-21 reporter – raises the signal of a miR-21 reporter | HeLa miR-21 FLuc reporter, luciferase, 48 h | Potency, µM (highest dose often 38.3 µM), without a hit: top-dose reporter change, positive = more light | 340,000 tested, under 10 active | AID 2288; active = well fitted rising curve with a large enough effect; inconclusive = small, poorly fitted or top-dose-only effect; inactive = no such curve, though single readings can be large or run the other way;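 also: % of control where 0% means no effect; miR-21 action dims this reporter so a rising signal means less miR-21 action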
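Luminescence from a firefly luciferase reporter carrying a miR-21 binding site downstream, stably expressed under a CMV promoter in HeLa cells that make miR-21 endogenously, reports miRNA modulation after 48 h compound exposure up to approximately 40uM final.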
Starred values were filed as active, the others as inactive; ? = inconclusive; nt = no result given; [ ] = remark or other dose.

Rango-impB inh,Rango release inh,GLA inh pH 4.5,miR-21 reporter,Structure
3.2%,-1.5%,nt,nt,CC(CCc1ccccc1)NC(=O)COC(=O)C(CCC(N)=O)NC(=O)c1ccc(F)cc1 (stereo not drawn)
3.4%,8.6%,9.0,2.2%,COc1ccc(-c2nnn(CC(=O)OC3CCCCC3)n2)cc1OC
6.5%,13.8%,-0.7,-3.6%,CCCCN=C1CC(C)(C)CC(=O)/C1=C(/O)CCCN1C(=O)c2ccccc2C1=O
2.9%,0.9%,7.4,2.7%,O=C(CSc1nc2ccccc2[nH]1)NCCCn1ccnc1
-2.3%,9.8%,5.3,-45.4%,CN(C)c1cccc(C(=O)Nc2cccc(F)c2)c1
-0.8%,-5.8%,-6.4,-0.1%,CC(C)c1[nH]nc2c1C(c1cccnc1)C(C#N)=C(N)O2 (stereo not drawn)
7.0%,-6.9%,-8.0,0.7%,Brc1csc2ncccc12
0.1%,-4.9%,5.1,2.8%,CC(C)n1c(N2CCN(C(=O)N3CCCCC3)CC2)nc2ccccc21
-0.6%,-0.7%,4.5,1.0%,c1ccc(Cc2nnc3n2CCCCC3)cc1
0.4%,27.9%,nt,nt,CCOc1ccc(CCN2C(=O)C(=O)N([C@@H](CC(C)C)CN3CCC[C@@H]3CN3C(=O)C(=O)NC[C@@H]3Cc3ccccc3)C[C@@H]2CC(C)C)cc1
?,-7.9%,-4.0,-20.2%,COc1ccccc1NC(=O)CSc1nc(N)c(C#N)cc1C#N
-4.2%,25.4%,nt,nt,CC1CCN(C(=O)CN2C(=O)C(=O)N(C)C2=O)c2ccccc2S1 (stereo not drawn)
?,?,-0.3,-1.4%,O=C(CC1C(=O)NCCN1Cc1c(F)cccc1Cl)NCCCn1ccnc1 (stereo not drawn)
-0.6%,-4.7%,7.7,-30.7%,C/C(=C\C(=O)c1ccccc1)Nc1ccc2c(c1)OCO2
4.9%,10.0%,nt,nt,CC1CCN(C(=O)COC(=O)C2CCN(S(=O)(=O)c3c(Cl)cccc3Cl)CC2)CC1
-2.0%,-1.4%,2.2,10.8%,COc1ccc(C(=O)C2CCCN(Cc3cccn3-c3nccs3)C2)cc1F (stereo not drawn)
0.6%,1.9%,nt,nt,[O-]C1=N[N+](=C(c2ccccc2)c2ccccc2)C1
?,?,-7.2,-38.2%,CN(CCC#N)C(=O)COC(=O)c1c2c(nc3ccccc13)/C(=C/c1ccco1)CC2
0.5%,-6.2%,-5.4,-8.6%,COc1ccc(C2NCCn3cccc32)cc1 (stereo not drawn)
-2.2%,-11.8%,nt,-17.7%,COc1ccc(-c2cn(Cc3ccc(C(=O)c4ccccc4)cc3)nn2)cc1
?,-20.9%,nt,nt,CCCN(CC(=O)Nc1ccc(F)c(F)c1F)C(=O)Cc1ccc(S(=O)(=O)N2CCOCC2)s1
-0.1%,6.0%,5.2,0.3%,COc1ccc(CNC(=O)CSc2ncnc3ccccc23)cc1OC
0.0%,-21.1%,nt,-0.9%,COc1ccccc1/C=C1/C(=O)N(c2ccc([N+](=O)[O-])cc2)N=C1C
-3.3%,-10.6%,7.2,-7.0%,COc1cc(C(=O)N=c2sc3c(C)ccc(OC)c3n2C)cc(OC)c1OC
-2.3%,-13.0%,nt,nt,Cc1cccc(N2CCN(C(=O)CN3C(=O)NC4(CCCCCC4)C3=O)CC2)c1C
-0.7%,1.9%,nt,-13.7%,CC[C@H](C)[C@H](NC(N)=O)C(=O)NNC(=O)c1ccc(COc2cccc3cccnc23)cc1
?,-5.9%,4.7[21.1 µM],2.1%,Cc1ccc(OCC(=O)N(Cc2ccccc2)c2ccccn2)cc1
3.0%,-11.3%,nt,4.0%,O=C(COc1cccc(-n2cnnn2)c1)Nc1ccc([N+](=O)[O-])cc1
-0.1%,-14.9%,4.1,-1.4%,O=C(CNC(=O)c1ccccc1)NCC(=O)OCc1ccccc1Cl
-1.5%,-4.3%,nt,nt,COc1ccc(-c2csc3ncnc(N4CCN(S(=O)(=O)c5ccc(C)cc5)CC4)c23)cc1
5.5%,2.1%,-4.2,-10.3%,Cc1c(N2C(=O)C(C)SC23C(=O)Nc2ccccc23)c(=O)n(-c2ccccc2)n1C (stereo not drawn)
2.4%,-9.8%,3.5,-1.8%,Cn1c(N)c(C#N)c(C#N)c1-c1ccccc1
-3.5%,0.5%,nt,3.1%,CSc1ncccc1C(=O)N(C)CC(=O)Nc1cccc(F)c1
-0.4%,10.9%,nt,2.2%,N#Cc1cccc(NC(=O)Cn2cnc(S(=O)(=O)N3CCOCC3)c2)c1
-0.2%,-14.3%,nt,-25.8%,O=C(Nc1ccc(F)cc1)c1cc2cc(Cl)ccc2[nH]1
0.4%,6.9%,nt,nt,O=C1OC[C@@H]2CCCN2C(=O)[C@H](CC(=O)N(CCO)Cc2ccccc2)C/C=C\CC[C@H]1Cc1ccc(F)cc1
1.9%,-4.5%,-8.6,-4.7%,CCCCc1ccc(C2C3=C(CC(C)(C)CC3=O)NC3=C2C(=O)c2ccccc23)cc1 (stereo not drawn)
-3.4%,-12.0%,-3.9,3.8%,CN(C[C@@H](CC1CCCCC1)N(C[C@H](Cc1ccccc1)N(CCc1ccccc1)N=O)N=O)N=O
-2.8%,-17.5%,-5.6,-0.5%,O=C(CSc1n[nH]c(=O)[nH]c1=O)NCC1CCCCC1
-3.3%,8.4%,nt,-23.3%,COc1cccc(NC(=O)CCc2c(C)nn(-c3ccc(N4CCOCC4)nn3)c2C)c1
15.0%,11.3%,0.9,-49.4%,Clc1ccccc1C1CC(c2ccccc2)=Nc2ccccc2N1 (stereo not drawn)
-0.1%,3.3%,nt,-0.1%,COc1ccc(-n2c(CN3CCN(c4ccc(F)cc4)CC3)nc3ccc([N+](=O)[O-])cc3c2=O)c(OC)c1
-2.7%,4.0%,6.2,0.0%,Cc1ccc(C)n1-c1ncc(Br)cn1
-1.5%,-3.4%,3.4,-11.9%,Cc1nnc(NC(=O)c2ccco2)s1
5.0%,-1.7%,-1.8,-19.9%,CCn1c(N)c(C(=O)NC2CCCCC2)sc1=S
-1.0%,3.1%,-10.6,-4.8%,Cc1nc([N+](=O)[O-])cn1CC(O)c1ccc(-c2ccccc2)cc1 (stereo not drawn)
-0.1%,-0.6%,-4.9,-9.2%,Cc1ccccc1NC(=O)CCCSc1nc2ccccc2s1
0.2%,10.5%,nt,-40.8%,O=C(N/N=C/c1ccc[nH]1)c1c[nH]c2ccccc12
7.8%,2.2%,4.5,-1.3%,CCCC(C)C(=O)Nc1ccc(NC(C)=O)cc1 (stereo not drawn)
1.2%,-0.3%,nt,-4.1%,CCCCCCCCCC(=O)OCC(O)CO (stereo not drawn)

More structures follow.
Rango-impB inh,Rango release inh,GLA inh pH 4.5,miR-21 reporter,Structure
-1.8%,21.4%,-16.6,-2.7%,COc1cccc2cc(C(=O)N(Cc3ccccc3)CC3CCCO3)c(=O)oc12 (stereo not drawn)
-0.4%,2.7%,nt,nt,CN(C)Cc1cc(C(F)(F)F)ccc1C(O)(c1ccccc1)c1ccccc1
?,17.7%,nt,nt,CCOc1cc2c(cc1OCC)CN(CC(=O)Nc1ccccc1C(=O)NC1CC1)CC2
1.5%,4.3%,nt,nt,CCC1([N+](=O)[O-])COC(c2ccc(C)cc2)OC1 (stereo not drawn)
2.3%,?,nt,-1.0%,CCOC(=O)COc1ccccc1/C=N\NC(=O)c1cc2c(ccc3ccccc32)o1
-1.5%,-4.1%,-6.6,11.9%,O=C(NCc1ccc(Cl)cc1)c1ccc(CSc2nc3ccncc3[nH]2)cc1
0.8%,-17.1%,2.5,-4.6%,COc1ccc(C(=O)C[n+]2ccccc2C)cc1
-0.6%,34.7%,9.4,-1.3%,C=CCSc1nnc(CNC(=O)c2ccc(Cl)cc2)n1CC
3.9%,14.6%,-0.1,-6.3%,COC(=O)Cc1ccc(NC(=S)N2CCN(c3ccc(OC)cc3)CC2)cc1
0.1%,7.1%,-2.2,-2.0%,COc1cc(Cl)c(C)cc1NC(=O)CCCN1C(=O)CCC1=O
-1.0%,9.6%,-12.3,-52.2%,CC(C)c1ccc(NC(=O)COc2ccccn2)cc1
0.1%,2.2%,-6.5,0.1%,CC(C)NCC1CCc2cc(CO)c([N+](=O)[O-])cc2N1 (stereo not drawn)
1.0%,1.1%,-5.4,-0.2%,O=c1[nH]nc(SCc2nnc(-c3cccc(Cl)c3)o2)n1C1CCCCC1
-2.5%,-9.5%,6.2,-27.0%,Oc1ccccc1/C=N/Nc1nccnc1Cl
3.2%,-9.2%,4.9,-1.3%,CCCNC(=S)N1CCC(NC(=O)C2CCCCC2)CC1
?,?,-1.7,-30.2%,c1ccc2c(c1)CCCN2Cc1nnnn1CC1CCCO1 (stereo not drawn)
-0.4%,-18.8%,-4.1,-20.0%,CC(C)Oc1ccc(C2CC(=O)N(c3cccc(C(=O)O)c3)C2=O)cc1 (stereo not drawn)
2.0%,7.0%,3.1,-17.4%,COc1ccc(-c2csc(NNC3=NCCCCC3)n2)cc1
-2.6%,-9.0%,-3.0,-33.2%,Cc1ccc(-c2csc(NC(=O)CCNC(=O)c3ccco3)n2)cc1
-1.0%,11.6%,-3.0,-4.8%,COc1ccc(S(=O)(=O)Nc2ccc(N3CCOCC3)nc2)cc1
-1.3%,6.2%,nt,-1.8%,Cc1ccc(C)c(S(=O)(=O)N2CCN(C(=O)c3ccnn3C)CC2)c1
1.1%,-9.4%,-2.2,-4.2%,CCc1nnc(NC(=O)CSc2nnc(COc3ccc(C#N)cc3)n2-c2ccccc2)s1
0.1%,2.7%,-11.0,0.1%,Cc1nnc(SCc2cc(=O)[nH]c(N3CCN(Cc4ccccc4)CC3)n2)s1
0.9%,0.3%,-2.8,-5.8%,CCC(c1nnnn1Cc1ccc(F)cc1)N(CCCO)Cc1cc2cc3c(cc2[nH]c1=O)OCO3 (stereo not drawn)
0.3%,-10.5%,nt,13.4%,Cc1ccc(N2C(=O)CC(Sc3nc(C)cc(C)n3)C2=O)cc1 (stereo not drawn)

Single records, as listed above. Values in the order: Rango-impB inh | Rango release inh | GLA inh pH 4.5 | miR-21 reporter
CCOC(=O)COc1ccccc1/C=N\NC(=O)c1cc2c(ccc3ccccc32)o1 is entered as 2.3% | ? | nt | -1.0%
CCc1nnc(NC(=O)CSc2nnc(COc3ccc(C#N)cc3)n2-c2ccccc2)s1 is entered as 1.1% | -9.4% | -2.2 | -4.2%

Continued:
Rango-impB inh,Rango release inh,GLA inh pH 4.5,miR-21 reporter,Structure
-3.1%,-6.7%,-1.3,?,COc1ccc(Cl)cc1Nc1nc(-c2sc(NC(=O)C(C)(C)C)nc2C)cs1
-0.8%,2.0%,3.2,-7.5%,Cc1ccc(C(c2nnnn2C2CCCC2)N2CCN3CCCC3C2)cc1 (stereo not drawn)
0.1%,-6.1%,nt,nt,CCCc1cc(C(=O)OCC(=O)N2CCN(c3ccc(OC)cc3)CC2)sc1C
?,?,-1.0,-1.3%,O=[N+]([O-])c1ccc(-c2ccc(/C=N/Nc3nc(N4CCCC4)nc(N4CCCC4)n3)o2)cc1
-1.2%,14.8%,-9.6,?,Cc1cc(N/N=C/c2ccc(O)c(C)c2O)nc(-c2ccccc2O)n1
-0.3%,-3.1%,-7.9,18.3%,CC1CCC(C(C)C)C(OCC(O)CN2CCN(Cc3ccccc3)CC2)C1 (stereo not drawn)
-0.2%,-0.4%,nt,-0.4%,O=c1[nH]cccc1-c1nc2ccccc2n1Cc1ccccc1F
-2.4%,-14.8%,9.9,-7.6%,CN(C)c1ccc(NC(=O)CC2NCCNC2=O)cc1 (stereo not drawn)
-1.2%,6.0%,nt,1.8%,CCCOc1ccc(C(=O)CCNC(Cc2c[nH]c3ccccc23)C(=O)O)cc1 (stereo not drawn)
0.4%,1.3%,-4.6,-5.5%,CCn1ccnc1CN(C)Cc1nc(Cc2cccc(C(F)(F)F)c2)no1
3.8%,3.6%,-1.9,-58.8%,CCN(CC)S(=O)(=O)c1cccc(C(=O)N/N=C(\C)c2cccs2)c1
-4.8%,-4.3%,-8.1,-40.2%,O=C(Cc1cccs1)N=Nc1c(O)[nH]c2ccccc12
0.4%,14.8%,-11.4,-2.0%,Cc1n[nH]c(=O)n1-c1ccc(OC(F)(F)F)cc1
4.0%,7.8%,19.8,-1.4%,CC1CN(c2ccc([N+](=O)[O-])cc2C(=O)N2CCOCC2)CC(C)N1 (stereo not drawn)

Screens as filed in PubChem BioAssay.

A portion of the library, so the mix of outcomes need not match the whole.
